# High-throughput results: PubChem BioAssay, several laboratories
# RecA intein inh = Mtb RecA intein splicing inhibitors, primary screen, biochemical, fluorescence, HTS; cell-free RecA intein splicing; 290,000 tested, 0.75% active; AID 2221, 2009; inhibition, %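 (about 9 µM by stock and volumes)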; in the data active = inhibition above about 30%; inconclusive = no clear call, values can overlap the other calls;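 also: 0% = vehicle wells and 100% = reference inhibitor control wells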
# Target sequence (P9WHJ3 whole entry, looked up): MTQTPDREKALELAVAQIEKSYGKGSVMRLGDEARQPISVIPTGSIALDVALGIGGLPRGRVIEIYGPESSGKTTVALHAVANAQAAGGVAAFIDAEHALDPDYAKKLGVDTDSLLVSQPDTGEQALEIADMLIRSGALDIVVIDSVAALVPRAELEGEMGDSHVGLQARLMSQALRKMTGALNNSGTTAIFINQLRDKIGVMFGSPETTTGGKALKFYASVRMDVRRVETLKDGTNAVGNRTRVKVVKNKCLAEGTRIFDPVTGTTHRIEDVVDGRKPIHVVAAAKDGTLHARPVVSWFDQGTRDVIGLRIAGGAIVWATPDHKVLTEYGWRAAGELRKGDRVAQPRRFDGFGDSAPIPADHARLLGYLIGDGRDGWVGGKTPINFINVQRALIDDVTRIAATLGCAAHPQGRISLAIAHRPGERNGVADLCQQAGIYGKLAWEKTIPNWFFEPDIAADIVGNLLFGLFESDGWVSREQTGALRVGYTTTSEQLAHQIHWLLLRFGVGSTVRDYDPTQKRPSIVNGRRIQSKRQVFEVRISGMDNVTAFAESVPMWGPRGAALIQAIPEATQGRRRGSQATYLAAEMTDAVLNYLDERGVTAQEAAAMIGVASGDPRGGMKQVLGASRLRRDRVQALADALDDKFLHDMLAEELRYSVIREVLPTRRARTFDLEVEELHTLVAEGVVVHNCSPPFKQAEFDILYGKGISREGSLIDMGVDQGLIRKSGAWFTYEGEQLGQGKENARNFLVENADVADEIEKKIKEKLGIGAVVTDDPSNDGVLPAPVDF
# Mtb bLac sens = beta-lactam sensitization of Mtb H37Rv, H37Rv | M. tuberculosis H37Rv growth with meropenem, percent inhibition; hits of this screen are not shown here | inhibition, % at 25 µM | 330,000 tested, 0.27% active;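 active = about 74% or more and at least 40 points above the plate without the antibiotic, then above 30% in a dose series; inconclusive = first-round hits that could not be retested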;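 also: growth measured after seven days incubation then overnight dye step; 0% = bacteria only wells and 100% = bacteria with antibiotic; twin plates without the antibiotic show which effects depend on it; some results filed as inactive read as strong as hits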
# Mtb H37Rv = M. tuberculosis H37Rv growth inhibitors, H37Rv strain (AID 1626); M. tuberculosis H37Rv growth inhibition; higher % means a stronger effect; inhibition, % at 10 µM; hits with a dose series show IC50 in µM; 220,000 tested, 0.95% active;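 active = confirmed in a dose series; inconclusive = inhibition above 80% but not taken into the dose series; inactive = below 80% or under 30% at every dose of the series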;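 also: bacteria incubated seven days before Alamar blue readout; 0% = bacteria only wells and 100% = bacteria with antibiotic wells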
# Arbovirus inh = antivirals against arbovirus infection, primary screen, cell-based, full library, 10K replicate subset. inhibition, % at 10 µM. AID 1251, 2008. arbovirus infection cell-based antiviral screen. 200,000 tested, 0.37% active;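 active = inhibition from about 30%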;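 also: bluetongue infection of BSR cells; cell survival read as ATP light after 72 h; 0% = infected wells without compound and 100% = uninfected wells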
# YopH PTP inh = YopH tyrosine phosphatase inhibitors, primary screen, biochemical, fluorescence Ex485/Em525; inhibition, %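 (about 10 µM by stock and volumes)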; 140,000 tested, 0.16% active; AID 898, 2007;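 active = inhibition of 50% or more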;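 also: controls were vehicle for no effect and minimum signal wells for full effect; inactives centre near -20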
# Active calls of the source: *; ? = inconclusive; · = not tested or not shown. An excerpt; count on the stated rates, not on these rows.
SMILES,RecA intein inh,Mtb bLac sens,Mtb H37Rv,Arbovirus inh,YopH PTP inh
O=C(O)c1ccc(N2CC3CC(C2)c2cccc(=O)n2C3)c(NC(=S)Nc2ccc(Cl)cc2Cl)c1 (stereo not drawn),2.6,0.7,-5.8%,3.4,·
O=C(COC(=O)c1cc(=O)[nH]c2ccccc12)c1cccs1,2.0,1.5,-6.9%,-4.2,·
Cc1cc(C)c(C)c(S(=O)(=O)Nc2ccc(O)cc2)c1C,-1.8,-4.6,-3.0%,26.8,-18.6
O=C(c1ccccc1)N1CCN(C(=S)NCCc2ccccc2)CC1,-1.3,-5.7,-1.3%,3.2,-35.0
OCCN1CCN(c2ncnc3scc(-c4ccc(F)cc4)c23)CC1,-1.0,-5.2,·,·,·
COc1ccc(NC(=O)c2coc(C)c2)cc1,3.3,1.1,·,·,·
Cc1ccc(C(=O)N/C(=C\c2cccs2)C(=O)NCc2ccncc2)cc1,-3.0,-3.8,1.0%,-0.2,-31.2
COc1cc(/C(C#N)=C/c2cccc3ccccc23)c([N+](=O)[O-])cc1OC,0.5,2.1,-4.0%,-22.9,-20.2
CCCSc1nnc2n(C)c(=O)c3c4c(sc3n12)CCC4,3.0,0.4,-6.6%,-9.3,-15.1
O=C(CSc1ncnc2c1cnn2-c1ccccc1)NCC1CCCO1 (stereo not drawn),1.3,-9.4,·,·,·

# The list goes on (3 carried over from the part before).
SMILES,RecA intein inh,Mtb bLac sens,Mtb H37Rv,Arbovirus inh,YopH PTP inh
COc1cc(/C(C#N)=C/c2cccc3ccccc23)c([N+](=O)[O-])cc1OC,0.5,2.1,-4.0%,-22.9,-20.2
CCCSc1nnc2n(C)c(=O)c3c4c(sc3n12)CCC4,3.0,0.4,-6.6%,-9.3,-15.1
O=C(CSc1ncnc2c1cnn2-c1ccccc1)NCC1CCCO1 (stereo not drawn),1.3,-9.4,·,·,·
CCc1ccc(NC(=S)N2CCN(C)CC2)cc1,1.1,-0.1,·,·,·
COc1cccc(-c2cc(C(=O)N3CCN(S(=O)(=O)c4ccc(Br)cc4)CC3)[nH]n2)c1,-1.8,2.5,·,·,·
Cc1ccc(-n2ncc(C(=O)Nc3cc(Cl)ccc3C)c2C2CCNCC2)cc1C,1.1,-11.2,2.2%,-19.4,·
CCn1c(CNC(=O)COc2ccc(C(C)C)cc2)nnc1SCC(=O)Nc1ccccc1F,3.4,-6.2,0.2%,4.9,-12.8
COc1ccc(NC(=S)N2CCNC(=O)C2CC(=O)Nc2ccc(C)cc2)cc1 (stereo not drawn),0.6,1.2,-0.3%,-2.4,-19.0
Cc1ccsc1/C=N/NC(=O)CNC(=O)c1c(F)cccc1Cl,1.9,9.0,·,·,·
O=c1c(Cc2ccc(Cl)cc2Cl)c(O)ccn1CCCN1CCOCC1,-0.8,-3.6,-0.1%,3.6,·
CCC(=O)c1ccc(OCC(=O)N2CCCC2)c(OC)c1,2.4,-0.3,-2.8%,-0.4,·
C/C=C/Cn1c(SCc2ccc(C)cc2)nc2c1c(=O)[nH]c(=O)n2C,0.6,-4.0,5.2%,0.9,-8.7
Nc1nnc(SCc2ccc(F)cc2)s1,-1.6,-3.1,>100µM*,2.8,-26.7
COc1cccc(NC(=O)CSc2nnc(C)s2)c1,-0.2,-2.0,-4.0%,-9.5,11.3
Cn1c(=O)c2c(nc(CN3CCN(c4cccc(Cl)c4)CC3)n2CCc2ccccc2)n(C)c1=O,-8.4,54.0,20.9%,·,-12.1
Cc1ccc(C(=O)NC2CCN(S(=O)(=O)c3ccccc3)CC2)cc1,-0.6,-5.0,-2.0%,4.0,·
CN(C)C1(CNC(=O)C2CCC(=O)N(CCc3ccc(Cl)cc3)C2)CCCCC1 (stereo not drawn),-1.9,1.6,·,·,·
CN(Cc1ccccn1)C(=O)C1CCC(=O)N(CCc2ccc(Cl)cc2)C1 (stereo not drawn),0.3,-4.1,·,·,·
CCOC(=O)c1c(NC(=O)c2cc(CC(C)C)on2)sc(C(C)=O)c1C,1.3,-4.1,9.9%,-2.1,-18.8
O=c1ccc(Cl)cn1Cc1ccccc1F,-2.4,-5.2,-8.0%,-1.5,-8.3
COCCCNc1nc2c(-c3ccc(Cl)cc3)nnn2c2ccccc12,-0.9,1.1,·,-5.0,-30.8
CCOC(=O)NC(=O)CSc1cc(C)c2cc(C)cc(C)c2n1,-1.4,1.1,5.0%,-3.1,·
CCOc1ccccc1NC(=O)c1ccccc1-c1nc(-c2ccccc2OC)no1,6.1,1.7,1.9%,-7.1,-19.3
COc1ccc(S(=O)(=O)N2CCN(C(=S)NC3CCCCC3)CC2)cc1,·,1.6,6.6%,16.4,·
CC(C)N(Cc1ccccc1)C(=O)CN1C(=O)COc2ccc(S(=O)(=O)N3CCCCCC3)cc21,-1.2,4.0,·,·,·
Cc1cc(C)c2[nH]c(O)c(N=NC3=NC(=O)CS3)c2c1,0.4,90.6,55.4%,·,·
CC(C(=O)C12CC3CC(CC(C3)C1)C2)N1CCOCC1 (stereo not drawn),3.0,-6.0,·,·,·
Cc1c(Br)c([N+](=O)[O-])nn1CCCC(=O)N1CCN(c2ccccc2)CC1,1.3,0.2,14.5%,-2.4,-10.2
O=C1c2ccccc2C(=O)N1Cc1nc2ccccc2c(=O)n1-c1cccnc1,-0.7,-10.6,-15.2%,9.9,-10.0
CCCCn1c(=O)c(C(=O)Nc2ccccc2C)c(O)c2ccccc21,2.4,-7.2,·,·,·
CCCN1Cc2cccc(C(=O)N3CCN(c4ccc(OC)cc4)CC3)c2C1=O,-4.6,-1.1,-10.9%,4.0,·
CC(C)(C)N1C(=O)c2ccc(C(=O)NCc3ccco3)cc2C1=O,-0.4,-6.8,-5.5%,4.4,-31.9
CC1(C)Cc2c(sc(NC(=O)C(=O)NCC3CCCO3)c2C(=O)O)CO1 (stereo not drawn),-3.3,-10.7,·,·,·
CN1CCC(N(C)C(=O)COc2ccccc2-c2ccccc2)CC1,-4.3,-9.8,-2.5%,-12.3,-32.5
COc1ccc2c(c1)C(C)=CC(C)(C)N2S(=O)(=O)c1ccc(C)cc1,-1.4,5.7,0.2%,-13.3,·
O=C(CSc1nc2ccccc2n1CC(=O)N1CCCCC1)N1CCCCC1,-3.1,-8.0,-2.2%,·,·
COc1cc2c(cc1OC)C(C)N(C(=O)c1cccc([N+](=O)[O-])c1)CC2 (stereo not drawn),2.0,-5.9,25.4%,8.5,·
CC(C)CNC(=O)/C(C#N)=C1\N=C(NC(=O)c2ccco2)c2ccccc21,1.1,12.7,·,·,·
CCC1=C(OC(=O)N(CC)CC)N2C(=O)OC(=NCc3ccccc3)[C@]2(C)[C@H]2C1=CC[C@H]1C(=O)N(CC)C(=O)[C@H]12,1.5,6.2,-0.7%,·,·
O=C1OCC(CO)(CO)N=C1NNc1ccccc1[N+](=O)[O-],-4.6,-2.7,-6.5%,·,·
CN(C)c1nc(N)nc(CSc2nnnn2-c2cccc3ccccc23)n1,3.7,-0.8,-8.6%,-2.9,6.4
CC(=O)Nc1ccc(NC2CCCCC2NS(=O)(=O)c2ccccc2)cc1 (stereo not drawn),-3.1,0.1,·,·,·
CC1Cc2ccccc2N1C(=O)COC(=O)Cn1cnc2ccccc2c1=O (stereo not drawn),-3.1,?,-5.1%,-0.9,-16.8
COc1ccc(C(O)CNc2ccc(C)cc2)cc1 (stereo not drawn),-3.4,1.1,·,9.7,-38.1
O=C(O)CC1(CC(=O)Nc2ccc3sccc3c2)CCCCC1,0.9,-1.0,-5.1%,·,·
Cc1ccc(N2C(=O)NC(=O)C(CCc3ccncc3)(Cc3cccc(Cl)c3Cl)C2=O)cc1 (stereo not drawn),5.0,13.7,7.5%,8.8,-31.1
S=c1[nH]cc(Cc2ccccc2)s1,-1.1,-3.3,1.8%,-7.7,-1.0
O=C(NC(Cc1c[nH]c2ccccc12)C(=O)O)/C(=C/c1ccc(F)cc1)NC(=O)c1ccccc1 (stereo not drawn),1.2,-5.5,·,·,·
COc1cc(/C=C/C(=O)O)cc(S(=O)(=O)NCc2ccco2)c1OC,-3.1,-6.3,-3.1%,1.9,·
CC(=O)Nc1c2c(nn1-c1ccc(C)cc1)CS(=O)(=O)C2,1.4,0.3,·,·,·
NCCc1nnc(SCc2ccc(F)cc2)o1,-6.8,-1.5,-1.6%,-1.1,-18.9
COc1cccc(CNC(=O)CC2C(=O)NCCN2CCCc2ccccc2)c1 (stereo not drawn),2.5,2.8,·,·,·
COc1ccc(CCNC(=O)c2c([S-])n(-c3ccc(C)cc3)c3cccc[n+]23)cc1,2.5,22.4,5.8%,·,·

# An excerpt from above in order of formula weight, high to low:
SMILES,RecA intein inh,Mtb bLac sens,Mtb H37Rv,Arbovirus inh,YopH PTP inh
Cc1ccc(N2C(=O)NC(=O)C(CCc3ccncc3)(Cc3cccc(Cl)c3Cl)C2=O)cc1 (stereo not drawn),5.0,13.7,7.5%,8.8,-31.1
O=C(NC(Cc1c[nH]c2ccccc12)C(=O)O)/C(=C/c1ccc(F)cc1)NC(=O)c1ccccc1 (stereo not drawn),1.2,-5.5,·,·,·
O=C(O)CC1(CC(=O)Nc2ccc3sccc3c2)CCCCC1,0.9,-1.0,-5.1%,·,·
CC(=O)Nc1c2c(nn1-c1ccc(C)cc1)CS(=O)(=O)C2,1.4,0.3,·,·,·
S=c1[nH]cc(Cc2ccccc2)s1,-1.1,-3.3,1.8%,-7.7,-1.0

# Further compounds
SMILES,RecA intein inh,Mtb bLac sens,Mtb H37Rv,Arbovirus inh,YopH PTP inh
CCOc1ccc(C2C(C(=O)c3ccco3)=C(O)C(=O)N2CCCn2ccnc2)cc1OC (stereo not drawn),-5.0,7.8,·,·,·
COc1ccc(C2c3c(ccc4ccccc34)Oc3ncn4nc(CO/N=C/c5ccccc5)nc4c32)cc1 (stereo not drawn),·,-0.8,-4.9%,8.2,1.8
CCc1cccc(CC)c1-n1c(-c2cccnc2)n[nH]c1=S,-2.4,-8.5,3.2%,4.1,·
C/C(=N\NC(=O)CNc1cccc(C)c1)c1ccc(Br)s1,-3.4,6.0,-4.4%,8.6,-41.2
O=C(CNC(=O)c1ccc(S(=O)(=O)N2CCCC2)cc1)N/N=C/c1ccccc1Cl,-0.6,-3.6,-3.5%,12.1,12.4
Cc1ccc(NC(=O)CN2C(=O)/C(=C\c3cccs3)SC2=S)cc1,-1.6,4.7,-3.9%,-9.1,-19.0
CCn1cc(C(=O)N[C@H](C(=O)NCCCO)C(C)C)c(=O)c2cc3c(cc21)OCO3,-1.8,1.0,·,·,·
CS(=O)(=O)N(Cc1ccccc1Cl)c1ccc(C(=O)NCc2cccnc2)cc1,1.1,-0.9,7.2%,-5.8,·
O=C(NCC1CCCO1)c1ccc2c(c1)ncn2-c1cccc(F)c1 (stereo not drawn),3.8,?,·,·,·
COc1ccc(C(=O)C(OC(=O)c2ccc(C)c(NC(C)=O)c2)c2ccccc2)cc1 (stereo not drawn),1.9,-10.3,-5.2%,2.2,-22.6
COC(=O)/C(=C/c1ccco1)NC(=O)c1ccco1,-5.3,-5.2,-8.0%,1.9,8.0
C[n+]1cc(-c2ccccc2)oc1-c1ccccc1,0.4,0.9,·,·,·
CCCN(CCC)C(=O)c1cc(-c2ccc3c(c2)OCO3)nc2ccccc12,9.3,-3.0,9.4%,-7.1,-24.1
O=c1c(Cl)c(N2CCOCC2)cnn1-c1ncc(C(F)(F)F)cc1Cl,1.0,-4.5,6.9%,2.9,·
CCN(CC)C(=O)C1CCCN(Cc2ccc3c(c2)OCO3)C1 (stereo not drawn),-1.4,-14.0,-4.3%,-5.4,-11.9
O=C1c2cccc3cccc(c23)C(=O)N1CC1CCCO1 (stereo not drawn),2.1,1.6,0.5%,-1.3,·
CCc1nnc(NC(=O)CCN2C(=O)c3ccccc3S2(=O)=O)s1,-0.9,23.3,3.6%,7.1,-14.6
CCCCN1C(=O)C(=O)N(CC(=O)Nc2ccccc2C(=O)OCC)C1=O,-1.3,-6.6,·,·,·
CCCCNC(=O)NC1CCCC1,-2.4,-2.8,-2.8%,0.8,-33.9
CCc1ccc(C(=O)N/N=C/c2ccncc2)s1,-0.1,66.2,·,·,·
Cc1cc(NC(=O)Cc2cn3ccsc3n2)n(-c2ccccc2)n1,1.4,-0.1,1.6%,6.2,2.6
CCc1ccccc1N(CC)C(=O)C1CCN(c2ncnc3c2nc2n3CCCCC2)CC1,0.3,7.7,·,·,·
COc1ccc(N(C)C(=O)CCS(=O)(=O)c2cccc3nsnc23)cc1,3.2,-0.5,·,·,·
COc1ccc(CC(=O)N/N=C(\C)CC(=O)Nc2ccc(N(C)C)cc2)cc1,-0.4,-0.1,·,·,·
